From PubChem BioAssay
AF4-AF9 inh: blocks AF4 peptide binding to human AF9 | AlphaScreen, biotin-AF4 peptide binding to FLAG-AF9 | inhibition, % at 10 µM | hit rate 0.47% among 350,000 | AID 651704;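 active means every replicate reaching a set inhibition limit, whatever the replicate mean, cut at about 25% in these data; inconclusive means mean inhibition reaches that limit but some replicates miss it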;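 further: 0% = plate neutral control median and 100% = total signal loss; the record names both 10 and 1 µM as test concentration; the first replicate is given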
Target sequence (P42568 whole entry, looked up): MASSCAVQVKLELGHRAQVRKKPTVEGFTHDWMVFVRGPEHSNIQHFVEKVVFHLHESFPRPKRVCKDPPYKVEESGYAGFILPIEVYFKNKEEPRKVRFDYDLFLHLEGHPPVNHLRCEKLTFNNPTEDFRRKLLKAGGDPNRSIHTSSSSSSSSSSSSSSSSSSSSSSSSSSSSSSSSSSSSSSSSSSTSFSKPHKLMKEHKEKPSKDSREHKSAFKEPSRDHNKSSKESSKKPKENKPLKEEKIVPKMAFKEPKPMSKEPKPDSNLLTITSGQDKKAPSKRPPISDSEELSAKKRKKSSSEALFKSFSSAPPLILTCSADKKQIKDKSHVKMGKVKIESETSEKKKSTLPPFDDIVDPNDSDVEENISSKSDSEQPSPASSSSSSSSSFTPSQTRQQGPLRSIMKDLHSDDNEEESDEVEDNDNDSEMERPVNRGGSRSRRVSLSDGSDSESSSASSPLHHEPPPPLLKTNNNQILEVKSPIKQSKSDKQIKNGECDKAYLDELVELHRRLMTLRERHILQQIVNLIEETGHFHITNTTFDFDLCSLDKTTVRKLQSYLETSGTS
HNF4A DNA FP: change in binding of human HNF4 alpha to DNA; P41235; HNF4a-FITC DNA binding, fluorescence polarization, 1 h; activity change, % at 10 µM; hit rate 0.3% among 360,000; AID 1224865; in the data active means activity change above about 30%, passing the limit was not always enough;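 further: controls were the assay level and a saturating level of protein; the project sought stronger binding though the title names inhibitors; some compounds called inactive have numbers as strong as hits; positive values seem to mean higher polarization but the record does not say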
Target sequence (P41235 whole entry, looked up): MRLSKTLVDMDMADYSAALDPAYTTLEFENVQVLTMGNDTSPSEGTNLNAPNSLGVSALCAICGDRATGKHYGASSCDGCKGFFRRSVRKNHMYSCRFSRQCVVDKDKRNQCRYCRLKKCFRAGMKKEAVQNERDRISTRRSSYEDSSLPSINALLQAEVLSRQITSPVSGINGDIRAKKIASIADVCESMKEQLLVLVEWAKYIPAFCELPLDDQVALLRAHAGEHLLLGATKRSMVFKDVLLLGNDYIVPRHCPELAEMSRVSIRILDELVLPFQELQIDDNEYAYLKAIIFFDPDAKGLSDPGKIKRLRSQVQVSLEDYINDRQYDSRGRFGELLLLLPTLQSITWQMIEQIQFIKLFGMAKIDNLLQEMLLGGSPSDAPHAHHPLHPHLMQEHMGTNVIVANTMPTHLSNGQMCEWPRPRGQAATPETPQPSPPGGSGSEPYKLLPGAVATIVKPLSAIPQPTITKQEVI
E coli growth: blocks Escherichia coli growth; OD600, 23 h; active compounds read low; OD600 absorbance (test concentration not listed); hit rate 0.21% among 330,000; AID 1053175;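 active means OD600 absorbance below the run mean of sample wells minus 3.6 SD, in any replicate, cut at about 0.56 in these data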;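 further: stock transfer was 300 nL into about 60 µL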
Vif A3G: HIV-1 Vif–A3G interaction blockers – biochemical, TR-FRET, GST-Vif 1-94, biotin-A3G peptide, dose response retest, primary screen (AID 1117319). TR-FRET GST-Vif / biotin-A3G peptide binding; higher % means a stronger effect; test concentration not given here; strong numbers were not always called active. inhibition, %; hits with a dose series show IC50 in µM. hit rate 0.57% among 260,000;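 active means above the screen mean plus three standard deviations and confirmed in dose response; inconclusive means results disagree or hit not tested in dose response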;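 further: Vif residues 1-94 fused to GST binding biotinylated APOBEC3G peptide 110-148; 0% = full assay without inhibitor and 100% = GST in place of GST-Vif; retest series ran down from 100 µM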
RanGTP-Impb inh: inhibitors of RanGTP-importin-beta interaction, primary screen, biochemical, FRET, CFP-Ran, YFP-importin-beta, homogeneous | cell-free CFP-Ran/YFP-importin-beta FRET ratio | inhibition, % (concentration not given with the values) | hit rate 1.1% among 300,000;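 active means most replicates above 15%; inconclusive means exactly half above 15%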;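 further: 0% = DMSO wells and 100% = Ran loaded with GDP instead of GTP; wells of about 40 µL received 100 nL stock; the first replicate is given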
UCH37 inh: inhibitors of human deubiquitinating enzyme UCH37; purified proteasome/UCH37, Ub-AMC cleavage fluorescence; inhibition, % (no concentration beside the values); hit rate 0.33% among 330,000;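 active means mean of two replicates above 20%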;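 further: 0% = compound-free wells with enzyme and 100% = wells lacking proteasome; stock transfer was 100 nL into about 20 µL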
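Schedule: 30 min plus 25 min, room temperature / Material: human UCH37 within purified proteasomes / Technique: AMC fluorescence intensity at 355/460 nm / Buffer or medium: pH 7.4 Tris-HCl (50 mM) with ovalbumin, ATP-MgCl2, DTT / Controls: wells without proteasome as full block, compound-free enzyme plus substrate as uninhibited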
FGF22 binding: binders of recombinant human FGF22 by thermal shift | AID 651658 | calls only at 9.99 µM | SYPRO orange fluorescence; percent of sucrose octasulfate shift, DMSO zero | hit rate 1.5% among 340,000 | Q9HCT0;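 active means melting point raised past a set limit in the mean and every replicate; inconclusive means no clear call; three in four hits are not shown here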
Starred values were filed as active, the others as inactive; i = inactive; ? = inconclusive; nt = no result given; & = joins results of further samples. Some of the compounds tested, so the mix of outcomes need not match the whole.

Fields: RanGTP-Impb inh, Vif A3G, UCH37 inh, AF4-AF9 inh, E coli growth, HNF4A DNA FP, FGF22 binding
O=C1CCCC2=C1CC(C(=O)OCc1ccccc1)C(=O)N2Cc1ccccc1 (stereo unspecified)
    nt, 16.7%, 0.9, 1.2, 0.673, -4.8, nt
CCC(=O)NC(c1cc(Cl)c2cccnc2c1O)C(C)C (stereo unspecified)
    nt, nt, -1.0, 7.5, 0.658, -3.8, i
O=C(CNC(=O)c1ccco1)OCC(=O)c1ccc(Cl)cc1Cl
    0.0, 1.4%, 2.6, -3.7, 0.673, 3.2, i
COc1ccccc1CCNC(=O)c1ccc(NC(=O)CC2SC(N3CCCCC3)=NC2=O)cc1 (stereo unspecified)
    nt, -9.6%, 2.4, 1.6, 0.697, 1.7, i
COc1ccccc1CC(=O)Nc1ccc(OC)c(OC)c1
    5.8, -1.3%, -1.2, nt, 0.709, 2.6, nt
O=C(COC(=O)c1ccc(Cl)cc1)NC1CCCCCC1
    nt, 25.9%, 1.1, -4.0, 0.677, -2.9, i
CO/N=C/NC(=O)NOCc1ncc(C(F)(F)F)cc1Cl
    5.3, 2.6%, 1.5, nt, 0.734, -1.1, nt
O=C(Nc1ccc([N+](=O)[O-])cc1)Nc1ccc2[nH]c(=O)[nH]c2c1
    -7.7, -1.9%, nt, -1.9, nt, -1.2, i
O=C(Nc1ccc(F)cc1F)c1c(C(F)(F)F)ccnc1Oc1cccc(C(F)(F)F)c1
    -2.5, nt, 2.4, 0.0, 0.701, 1.0, i
CCCc1nnc(NC(=O)CCC(=O)O)s1
    5.9, -3.4%, 4.7, 6.4, 0.703, -1.8, i
O=C(CC1Sc2ccccc2NC1=O)Nc1cccc(-c2nnc3n2CCCCC3)c1 (stereo unspecified)
    4.8, 0.1%, 1.1, nt, 0.695, 1.7, nt
Cc1ccc(-c2csc3ncnc(NCCC(=O)O)c23)cc1
    -0.3, -5.3%, nt, -3.2, nt, -1.3, i
Cc1cccc(C)c1NC(=O)Cn1nc(C)n2cccc2c1=O
    1.3, nt, 3.4, -1.3, 0.692, 1.2, i
O=C(Nc1ccnn1C1CCN(Cc2ccccc2OCCO)CC1)c1cccc(F)c1
    -4.1, nt, 4.9, 2.2, 0.706, 27.8, i
Cc1ccccc1NC(=O)COC(=O)C1(C)CC1(Cl)Cl (stereo unspecified)
    0.9, 15.1%, -0.1, -0.7, 0.722, 2.0, i
CCOC(=O)C1CCCN(C(=O)Cn2cnc3sc(C)c(S(=O)(=O)N4CCOCC4)c3c2=O)C1 (stereo unspecified)
    6.5, -11.0%, 0.1, -2.1, 0.682, -4.8, i
Cc1cccc(N(CC(=O)NCC2CCCO2)C(=O)CCC(=O)Nc2nccs2)c1 (stereo unspecified)
    -4.0, nt, 1.2, -5.4, 0.653, -1.1, i
COCOCCn1cc(CN2CCS(=O)(=O)N(Cc3ccc(-c4cccc(CO)c4)cc3)C(C(C)C)C2=O)nn1 (stereo unspecified)
    nt, nt, nt, 0.2, nt, -3.9, i
O=C(CN1C(=O)c2ccccc2C1=O)Nc1ccc2c(c1)OCO2
    4.7, 1.0%, -1.0, nt, 0.722, 0.7, nt
Cc1ccc(C(=O)Nc2nc(=O)n(C(=O)c3ccccc3Cl)s2)cc1
    5.0, 2.4%, 1.9, nt, 0.662, 1.3, nt
Cc1cc(C)c2c(n1)nn1c(NCCN3CCOCC3)cc(C)nc21
    35.5*, 0.9%, i, nt, 0.721, -2.2, nt
Cc1csc(NC(=O)C2CCCCC2C(=O)O)n1 (stereo unspecified)
    1.9, 0.1%, 1.2, nt, 0.699, 2.4, nt
Fc1ccc(/C=C/c2nnc(-c3cccs3)o2)cc1
    -0.5, nt, -22.1, 1.7, 0.67, 1.9, i
COc1ccc(S(=O)(=O)N2CCCCC2)cc1NC(=O)CCNC(=O)c1ccccc1Cl
    nt, -13.7%, 1.9, 1.0, 0.662, 1.1, i
CCc1cccc(OCCN2CCCC2)c1
    6.2, -3.3%, 5.0, 3.8, 0.66, -1.3, i
CC(NC(=O)CCNS(=O)(=O)c1ccc2c(c1)oc(=O)n2C)c1ccccc1 (stereo unspecified)
    -1.1, nt, -0.1, -4.2, 0.696, -2.0, i
O=C1CC2(CC(c3ccc(Cl)cc3)=NO2)C(=O)N1c1ccccc1 (stereo unspecified)
    2.8, 16.8%, 1.0, -2.1, 0.671, 2.2, i
COc1ccc(OCC(=O)NNC(=O)c2ccccc2OCc2c(C)noc2C)cc1
    9.6, 2.4%, -1.0, -1.9, 0.626, 1.0, i
Cc1nc2ccc(C(=O)O)cc2c2c1CC(CN)O2 (stereo unspecified)
    5.5, nt, -3.7, -14.4, 0.712, -4.0, i
Cc1ccc([C@@H]2CC=C(C(=O)O)[C@H](c3ccc(C(C)(C)C)cc3)N2S(=O)(=O)c2ccc(C)cc2)cc1
    nt, nt, 8.3, -1.7, 0.667, -4.3, i
CC1CCN(C(=O)N2c3ccccc3Sc3ccccc32)CC1
    ?, 16.3%, 1.2, nt, 0.75, -0.1, nt
CCOC(=O)c1c(C)[nH]c(C(=O)N2CCN(C(=O)OCC)CC2)c1C
    6.0, nt, 3.2, 2.2, 0.66, 0.6, i
O=C(O)c1ccc(-c2sc(Nc3ccccc3)n[n+]2-c2ccccc2)cc1
    0.4, nt, -1.0, -3.7, 0.719, 1.3, i
COc1ccc(-c2cc(C(=O)N3CCCCCC3)no2)cc1OC
    5.6, -2.2%, 0.9, -4.0, 0.636, 1.0, i
CC(C)=CCN1CCN(Cc2nc(-c3ccc(F)cc3)cs2)CC1CCO (stereo unspecified)
    0.6, -2.8%, 1.2, -18.7, 0.711, -2.6, i
CN(Cc1ccccc1F)Cc1cc(=O)oc2cc(O)c(Cl)cc12
    66.9*, 3.7%, i, -2.2, 0.705, -0.4, i
O=C(c1cn(CC(=O)N2CCCC2)c2ccccc12)C1CCCCC1
    -1.1, -3.9%, 2.7, nt, 0.666, -1.9, nt
CC(C)n1cnc2c(oc3ccccc32)c1=O
    0.0, -5.9%, -0.9, -1.2, 0.673, -0.1, i
COc1cccc(N2C(=O)CC(N3CCc4ccccc4C3)C2=O)c1 (stereo unspecified)
    4.7, -6.3%, 3.8, -1.4, 0.655, -1.1, i
Cc1ccc(C(=O)O/N=C/c2c(C(F)(F)F)nn(C)c2Sc2ccc(Cl)cc2)cc1
    -1.8, 14.3%, nt, nt, nt, -0.6, nt
O=C(NC1CCCC1)C(c1ccncc1)N(C(=O)c1ccco1)c1ccc(Cl)cc1 (stereo unspecified)
    1.3, nt, 1.4, -0.2, 0.648, -1.3, i
CCCN1CCC(=O)N([C@H](CSc2ccc(OC)cc2)Cc2ccccc2)CC1
    1.2, nt, 1.2, 6.6, nt, -1.4, i
CCCn1nc(C(=O)Nc2ccc3nc(C)sc3c2)c2ccccc2c1=O
    -3.9, nt, 2.0, 1.1, 0.653, -3.8, i
Cc1ccc(S(=O)(=O)Oc2ccc3c(c2)O/C(=C\c2cccnc2)C3=O)cc1
    -5.0, 3.0%, 2.0, nt, 0.746, 2.7, nt
N#Cc1nc(COc2cccc(Cl)c2)oc1NCCN1CCOCC1
    -0.4, 7.3%, 1.1, 0.5, 0.647, 2.5, i
Cn1cnnc1SCC(=O)Nc1ccc(N2CCCCC2)cc1
    nt, -5.5%, 1.7, 6.1, 0.664, 0.9, i
CCOc1ccc(Nc2ccc(S(=O)(=O)N3CCOCC3)cc2[N+](=O)[O-])cc1
    nt, -1.6%, nt, 18.7, nt, -3.4, i
COc1ccc(C(=O)COC(=O)c2cc(=O)[nH]c3ccccc23)c(OC)c1
    5.0, -15.1%, -3.3, 0.2, 0.683, 0.9, i
Cc1ccc(C(=O)NNC(=O)c2cc(C)nc3ccccc23)cc1
    nt, 5.3%, -0.1, -1.1, 0.685, -2.0, i
COc1ccc(-c2csc(NC(=O)CSCC(=O)Nc3cc(C)on3)n2)cc1OC
    1.3, 4.8%, 1.3, -1.4, 0.687, 2.1, i

Continued.
Fields: RanGTP-Impb inh, Vif A3G, UCH37 inh, AF4-AF9 inh, E coli growth, HNF4A DNA FP, FGF22 binding
CCOC(=O)c1nc(C)nc(Sc2n[nH]c(-c3ccccc3)n2)c1C
    -0.5, ?, -1.0, -10.3, 0.703, 4.1, i
Cc1noc(C)c1C(=O)Nc1ccc(-n2ccc(C(F)(F)F)n2)cc1
    -0.5, -0.2%, -0.4, nt, 0.71, 1.7, nt
Cc1ccc(/C=C2/CNC/C(=C/c3ccc(C)cc3)C2=O)cc1
    nt, 4.1%, nt, -0.8, nt, 0.6, i
C[C@@]12C(=O)Nc3cc(Cl)ccc3C(=O)N1[C@H]1c3cc(Br)ccc3OC[C@@H]1[C@@H]2c1ccccc1
    nt, nt, -2.7, 0.6, nt, 1.7, i
Cc1ccc(C2=NN(S(C)(=O)=O)C(c3ccc4c(c3)OCO4)C2)cc1 (stereo unspecified)
    7.5, 20.1%, -0.2, 4.2, 0.647, 50.8*, i
Cc1nc(-c2ccccc2)cc(-c2ccccc2)n1
    -0.9, nt, 3.5, nt, 0.604, 2.2, i
O=C(c1cc(F)ccc1F)C1CCCN(C(=O)c2ccc3nccnc3c2)C1 (stereo unspecified)
    0.2, nt, 4.0, 7.1, 0.682, -2.5, i
O/N=C1\CCSc2ccc(F)cc21
    2.7, ?, nt, -5.6, nt, -3.7, i
Cc1ccc(C(=O)c2cc([N+](=O)[O-])ccc2N2CCN(C)CC2)cc1
    -4.0, -1.4%, 7.1, nt, 0.789, -2.6, nt
C[C@H]1CN([C@@H](C)CO)C(=O)Cc2cc(NC(=O)CCC(F)(F)F)ccc2O[C@H]1CN(C)C(=O)Nc1ccc(F)cc1
    nt, nt, 5.3, -2.4&0.4, nt, 1.4, i
O=C(OCCNC(=O)c1ccc2ccccc2n1)c1ccc(F)cc1
    ?, 7.5%, 1.6, -8.4, 0.644, -0.5, nt
Cc1occc1C(=O)N/N=C/c1ccc(-c2ccccc2)cc1
    -3.2, nt, nt, 0.3, nt, 0.5, i
C=C(C)CCC1(C)NC(=O)N(c2ccccc2)N1 (stereo unspecified)
    1.4, nt, 6.0, 0.4, 0.66, 0.2, i
Cc1cc(=O)oc2c(CN3CCCC3)c(O)ccc12
    8.7, -12.5%, i, -0.9, 0.662, 2.1, i
Cc1ccccc1CS(=O)(=O)c1cnc2ccccc2n1
    0.4, 10.3%, 3.6, nt, 0.726, -0.4, nt
O=C1NCN(c2ccccc2)C12CCN(c1nnnn1-c1ccccc1)CC2
    -1.3, 30.4%, 1.6, nt, 0.713, -0.6, nt
N[C@@H](CO)c1nnc([C@H](Cc2ccc(O)cc2)NC(=O)C2CCNCC2)o1
    -1.1, -3.1%, -1.3, -9.7, nt, 1.0, i
C=CCn1c(C)c(C(C)=O)c(SC)nc1=S
    1.0, 2.0%, 4.9, nt, 0.689, 0.2, nt
CCOc1cc(NC(=S)NC)c(OCC)cc1NC(=O)c1ccco1
    2.1, -4.6%, 3.1, nt, 0.693, 1.4, nt
COc1cc(/C=N/NC(=O)c2ccncc2)cc(OC)c1OC
    -0.4, nt, nt, -10.8, nt, 0.9, i
COC(=O)[C@@]1(Cc2ccccc2)C=C[C@@H](C)N1C(C)=O
    -0.3, nt, -0.4, -3.3, nt, 1.3, i
COc1ccc(C)c(Cn2c(-c3nonc3N)nc3ccccc32)c1
    -0.9, 0.5%, -1.1, nt, 0.669, 3.4, nt
CC(=O)Oc1ccc(Cl)cc1CN(C(C)=O)C1CCCCC1
    nt, -5.8%, 4.7, -1.1, 0.657, -3.3, nt
Cc1cc(=O)[nH]c(N2CCN(Cc3ccccc3)CC2)n1
    -2.4, -2.7%, 4.6, nt, 0.65, 2.5, nt
CCn1c(Cc2ccccc2)nnc1SCC(=O)Nc1ccc(S(N)(=O)=O)cc1
    -6.3, 15.6%, 0.0, nt, 0.669, 0.2, nt
CCN(C(=O)CSc1n[nH]c(N)n1)c1cccc2ccccc12
    nt, nt, 0.9, 1.4, 0.714, 2.8, i
